# D2 agonist = Beta-Arrestin HTS for Positive Allosteric Modulators of the Human D2 Dopamine Receptor: Agonists; D(2) dopamine receptor (Homo sapiens), P14416; DiscoveRx PathHunter D2 beta-arrestin, luminescence, 90 min; 100% = 57 uM dopamine signal; activation, % (test concentration not listed); actives 0.084% (n = 360,000); AID 624465, 2012; in the data active = activation above about 40%; inconclusive = about 15% to 40%; inactive = below about 15%; further: compound concentration not given in the record; the text of the record calls up to 30% inactive
#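 Agonist mode: compounds alone added to overnight-plated D2 PathHunter cells for 90 min at 37 C, with 57 uM final dopamine (EC100) defining full response. Beta-arrestin recruitment detected by chemiluminescent reagent, read after 1 h at ambient temperature.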
# Six1-Eya2 blk = qHTS Assay for Inhibitors of the Six1/Eya2 Interaction | AlphaScreen GST-Six1/His-Eya2 binding, biochemical; hits give low values; control for the full effect not named in the record | activity change, % (no concentration beside the values) | actives 0.56% (n = 360,000) | AID 651725, 2012; in the data active = activity change below about -65%; inconclusive = about -30% to -65%; inactive = above about -30%; further: on the % scale 0 is the no-effect control and ±100 the full control effect; compound concentration not given in the record
# Target sequence (O00167 whole entry, looked up): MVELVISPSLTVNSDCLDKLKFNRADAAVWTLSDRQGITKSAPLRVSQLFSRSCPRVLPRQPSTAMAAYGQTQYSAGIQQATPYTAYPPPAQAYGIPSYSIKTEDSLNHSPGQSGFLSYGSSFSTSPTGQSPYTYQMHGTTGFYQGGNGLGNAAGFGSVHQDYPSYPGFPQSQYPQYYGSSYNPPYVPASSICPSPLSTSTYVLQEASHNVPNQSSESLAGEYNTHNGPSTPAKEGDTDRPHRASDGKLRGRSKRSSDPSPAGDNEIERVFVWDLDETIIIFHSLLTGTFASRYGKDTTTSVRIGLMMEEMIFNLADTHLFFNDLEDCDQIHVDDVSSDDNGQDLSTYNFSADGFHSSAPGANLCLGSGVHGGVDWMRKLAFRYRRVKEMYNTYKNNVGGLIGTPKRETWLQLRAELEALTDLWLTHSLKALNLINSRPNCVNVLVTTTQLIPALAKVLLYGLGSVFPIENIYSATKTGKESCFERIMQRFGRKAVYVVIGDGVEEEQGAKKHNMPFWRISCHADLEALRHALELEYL
# Target sequence (Q15475 whole entry, looked up): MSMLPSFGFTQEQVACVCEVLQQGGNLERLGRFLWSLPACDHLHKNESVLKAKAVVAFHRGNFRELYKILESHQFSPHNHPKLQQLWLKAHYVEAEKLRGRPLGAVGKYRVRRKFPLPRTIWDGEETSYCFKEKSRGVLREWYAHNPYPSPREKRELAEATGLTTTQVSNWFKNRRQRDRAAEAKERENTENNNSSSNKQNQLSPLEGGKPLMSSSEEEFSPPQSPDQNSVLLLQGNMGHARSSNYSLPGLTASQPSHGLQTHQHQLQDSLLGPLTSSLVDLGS
#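 Compounds are tested against tagged Six1 and Eya2 proteins bridged by glutathione donor and nickel acceptor beads; after a one-hour incubation at 37 °C without light, AlphaScreen emission is recorded.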
# D2 potentiator = Beta-Arrestin HTS for Positive Allosteric Modulators of the Human D2 Dopamine Receptor: Potentiators. AID 624464, 2012. potentiation, % (concentration not given with the values). actives 0.23% (n = 360,000). DiscoveRx D2 beta-arrestin cells, luminescence, 90 min; 100% = 57 uM dopamine signal; active = potentiation of 50% or more; inconclusive = 30% to 50%; inactive = 30% or less;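 further: compound concentration not given in the record; tested on top of an EC20 dose of dopamine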
#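 D2 cells co-treated with compound plus 50 nM dopamine (EC20) for 90 min at 37 deg C to detect potentiation. Beta-arrestin recruitment was read as enzyme-fragment luminescence after 1 h at ambient temperature. Full response was set by 57 uM dopamine.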
# gsp antag = qHTS for Antagonists of gsp, the Etiologic Mutation Responsible for Fibrous Dysplasia/McCune-Albright Syndrome: qHTS; gsp-mutant cells, cAMP HTRF, 30 min; control for the full effect not named in the record; Potency, µM (doses to about 76.9 µM), for inactives: top-dose activity change, negative = inhibition, usual class: inhibitors; actives 0.4% (n = 340,000); AID 624288, 2012; active = falling curve of any shape with a large fitted effect; inconclusive = falling curve, mostly with a smaller effect; inactive = flat or rising curve; cell line not stated here;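 further: intracellular cAMP measured with PDE inhibitor Ro 20-1724 present during compound exposure; potency means the concentration at half of the fitted maximal effect; on the % scale 0 is the no-effect control and ±100 the full control effect; nearly all actives have a fitted effect of over 65% in size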
#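 HTRF cAMP read-out (cAMP-d2 plus anti-cAMP antibody-K in lysis buffer, 30 min RT). Before lysis, cells are exposed to compounds with […] for 30 min at 37C in DPBS containing Ca/Mg, BSA and Tween 20.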
# CtBP-E1A blk = qHTS Assay for Inhibitors of the CtBP/E1A Interaction | CtBP / adenovirus E1A interaction (AlphaScreen) | AlphaScreen GST-E1A/His-CtBP binding, 1536-well; hits give low values; control for the full effect not named in the record | AID 651724, 2012 | actives 0.49% (n = 340,000) | activity change, % (test concentration not listed); in the data active means activity change below about -65%; inconclusive means about -30% to -65%; inactive means above about -30%; further: on the % scale 0 is the no-effect control and ±100 the full control effect; compound concentration not given in the record
#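 Homogeneous bead-based format: GST-tagged E1A captured on glutathione donor beads, His-tagged CtBP on nickel acceptor beads; compounds precede bead addition by 2 h at 37 °C.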
# gsp ag = qHTS for Agonist of gsp, the Etiologic Mutation Responsible for Fibrous Dysplasia/McCune-Albright Syndrome: qHTS; actives 0.13% (n = 340,000); gsp mutant cells, cAMP HTRF, 30 min; control for the full effect not named in the record; AID 624287, 2012; Potency, µM (titrated, usually from 76.9 µM), for the others: top-dose activation (cAMP increase), hits mostly activators; active = well fitted activation curve with a large enough effect; inconclusive = small, poorly fitted or top-dose-only effect, or another doubt; inactive = no such curve, though single readings can be large or run the other way; cell line not stated here;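 further: phosphodiesterase inhibitor Ro 20-1724 added with compounds to block cAMP breakdown; potency means the concentration at half of the fitted maximal effect; nearly all actives have a fitted effect of over 60% in size; about a fifth of the inactives were tested at one dose only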
#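 Cells in DMEM/10% FBS with G418 were pretreated with compounds in DMSO plus […] (300 uM stock) for 30 min at 37C. cAMP was measured by HTRF (cAMP-d2 plus anti-cAMP antibody-K) after 30 min at room temperature.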
# Numbers without * were called inactive; ? = inconclusive; / = no result given; [ ] = remark or other dose.
# Value order – gsp ag | D2 agonist | gsp antag | D2 potentiator | Six1-Eya2 blk | CtBP-E1A blk
> O=C(N1CCCCC1)N1CCN(S(=O)(=O)c2ccc(Cl)cc2)CC1
    -11.4%[15.4 µM] | -0.2 | / | -4.6 | 10.5 | -21.8
> O=C(Nc1ncn[nH]1)c1c(Cl)ccc(Cl)c1Cl
    -34.2%[inhibitor] | 0.0 | -9.0% | -1.8 | -3.8 | -3.4
> COCc1ccc([C@@H]2C[C@H]3CN(Cc4cccc(Cl)c4)C(=O)[C@]34CCCN24)o1
    3.0% | 0.1 | -7.0% | 8.6 | 6.3 | /
> O=C1NCCN(CC2CCN(CCc3ccc(Cl)c(Cl)c3)CC2)C1=O
    / | -2.3 | -6.4% | -12.2 | 3.2 | 0.0
> COc1ccc(CN(C)C[C@H]2OCCCC[C@@H](C)Oc3ccc(NC(=O)c4ccccc4)cc3C(=O)N([C@H](C)CO)C[C@@H]2C)cc1
    -67.0%[inhibitor] | -4.1 | / | -3.6 | -1.0 | -2.8
> COC(OC)C1(C)C(C#N)=C(N)Oc2c1c(=O)oc1ccccc21 (stereo not given)
    -33.6%[inhibitor] | 2.8 | -1.6% | 0.6 | -4.3 | -12.1
> COc1ccc(C(CNC(=O)CSc2ccc(Br)cc2)N2CCOCC2)cc1 (stereo not given)
    -15.5%[15.4 µM] | -1.8 | -1.6% | -25.4 | 6.1 | -8.7
> CC(=O)c1c(C)[nH]c(C(=O)OCC(=O)c2c[nH]c3ccccc23)c1C
    15.7% | 6.0 | -10.2% | 0.1 | -5.3 | -4.2
> Cc1occc1C(=O)N/N=C/c1c[nH]c2ccccc12
    4.3% | -2.4 | -1.4% | -8.0 | -3.9 | -6.6
> CCOc1ccc(S(=O)(=O)NN=C(C)c2cccnc2)cc1
    13.9% | 6.9 | 2.6% | 0.6 | 2.7 | 1.2
> CC(=O)NC12CC3CC(C1)CC(C(=O)N1CCN(S(=O)(=O)c4ccccc4C#N)CC1)(C3)C2
    19.5%[15.4 µM] | -6.8 | 3.1% | 1.7 | 7.5 | 5.3
> Cc1cc2cc(C)c(NCCNC(=O)c3cccc(F)c3)nc2cc1C
    -35.5%[inhibitor] | -2.3 | 9.1% | -9.5 | -2.9 | /
> CC(C)(C)C(=O)N(Cc1ccc(Cl)cc1)c1cnccn1
    ? | -1.9 | -9.4% | -20.0 | 5.9 | /
> COc1cc(OC)cc(-c2nnc(SCC(=O)Nc3cccc(C(=O)O)c3)s2)c1
    ? | 3.2 | -9.8% | -4.7 | -10.2 | -3.6
> CCC(C)C(NC(=O)c1ccccc1NC(=O)c1ccccc1)C(=O)N1CCOCC1 (stereo not given)
    0.7%[15.4 µM] | 1.0 | 5.0% | -9.5 | -0.4 | -2.7
> CCC(C)NC(=O)Cn1cc(S(=O)(=O)N2CCN(c3ccccc3F)CC2)c2ccccc2c1=O (stereo not given)
    -28.3% | 2.3 | -7.7% | -6.5 | 2.3 | 1.0
> COCCNC(=S)N1CCc2cc(OC)c(OC)cc2C1COc1ccc(F)cc1 (stereo not given)
    -4.4% | -3.9 | -5.0% | -32.9 | -14.2 | -17.9
> CC1(C)C(=O)Nc2ccccc2N1C(=O)COC(=O)CNS(=O)(=O)c1ccc(Br)cc1Cl
    -30.2%[inhibitor] | -2.6 | ? | -2.5 | -10.6 | /
> N/C(=N\OC(=O)CN1C(=O)c2ccccc2C1=O)c1ccc(Br)cc1
    -60.0%[inhibitor] | 2.1 | 8.6% | -7.3 | 4.0 | /
> CCN(C[C@H]1N[C@@](Cc2ccccc2)(C(=O)OC)[C@H]2C(=O)N(C)C(=O)[C@@H]12)C(=O)c1ccccc1
    / | -0.3 | -3.8% | / | -2.1 | 4.2
> CSc1ncccc1C(=O)NNC(=O)c1ccc(NS(=O)(=O)c2cccs2)cc1
    -5.3% | 0.7 | 8.4% | -11.9 | -0.5 | -18.4
> CCOC(=O)C1C(=O)NC(SCC(N)=O)=C(C#N)C1c1ccccc1OCC (stereo not given)
    3.3% | 0.0 | -15.4% | 3.7 | 3.2 | 3.7
> CC(C)OC(=O)c1ccc(NC(=O)CSc2nc3ncccc3[nH]2)cc1
    -40.4%[inhibitor] | 2.6 | ? | -5.0 | -2.9 | 5.0
> Cc1ccc(S(=O)(=O)NNC(=O)c2sccc2-n2cccc2)cc1
    2.4% | -1.1 | -13.7% | -18.4 | -4.4 | -0.8
> Cc1ccccc1OCCNCC(C)O (stereo not given)
    6.4%[15.4 µM] | -2.1 | -18.6% | -10.8 | -11.9 | 0.0
> O=C(Nc1ccc(Cl)c(Cl)c1)C1CCCCC1
    -8.2% | -3.3 | -19.8% | -12.0 | 2.9 | 17.3
> CCOC(=O)c1c(NC(=O)COC)sc(C)c1C
    8.8% | -1.7 | -3.9% | -4.5 | 7.6 | -5.8
> Cc1cc(Cl)ccc1N=c1ssnc1Cl
    -48.1%[inhibitor] | -4.2 | -25.4% | 1.1 | -1.0 | -3.5
> Cn1cc(S(=O)(=O)N2CCc3ccccc3C2)c(=O)n(C)c1=O
    3.9% | -4.0 | 8.7% | -6.4 | 7.5 | 9.4
> CCn1ccnc1CN1CCN(CCC(C)C)C(CCO)C1 (stereo not given)
    -5.1% | -3.2 | 10.2% | -13.8 | -3.7 | 4.4

# 3 entries drawn at random from those above:
# Value order – gsp ag | D2 agonist | gsp antag | D2 potentiator | Six1-Eya2 blk | CtBP-E1A blk
> Cc1ccc(S(=O)(=O)NNC(=O)c2sccc2-n2cccc2)cc1
    2.4% | -1.1 | -13.7% | -18.4 | -4.4 | -0.8
> CCOc1ccc(S(=O)(=O)NN=C(C)c2cccnc2)cc1
    13.9% | 6.9 | 2.6% | 0.6 | 2.7 | 1.2
> CC(C)(C)C(=O)N(Cc1ccc(Cl)cc1)c1cnccn1
    ? | -1.9 | -9.4% | -20.0 | 5.9 | /

# Next section:
# Value order – gsp ag | D2 agonist | gsp antag | D2 potentiator | Six1-Eya2 blk | CtBP-E1A blk
> CS(=O)(=O)N(CCc1ccccc1)CC(=O)NCc1ccc(Cl)cc1
    15.5%[15.4 µM] | -2.0 | -3.6% | -9.1 | 2.5 | 1.3
> Cc1ccc(S(=O)(=O)c2cc3c(=O)n4ccccc4nc3n(Cc3ccco3)c2=N)cc1C
    25.6% | -1.9 | 6.7% | -13.9 | 3.2 | 0.6
> O=C1C(Cc2ccc(O)cc2)NC(=S)N1c1ccccc1 (stereo not given)
    -21.4% | -7.4 | 11.1% | -21.6 | 1.8 | 6.3
> COc1ccc(N2CCC(CNC(=O)Nc3cccc(OC)c3)C2)cc1 (stereo not given)
    -57.8%[inhibitor] | -3.1 | -25.5% | -5.2 | ? | ?
> C=C(C)C1CC=C(C)/C(=N\NC(=O)CCC(=O)Nc2ccc(C)c(C)c2)C1 (stereo not given)
    8.0%[15.4 µM] | -2.7 | -10.4% | -1.1 | 1.2 | -0.2
> CCc1nnc(NS(=O)(=O)c2ccc(NC(=S)NC(=O)c3ccncc3)cc2)s1
    -5.5% | -6.0 | 3.1% | -17.7 | -1.0 | -11.8
> COc1ccc(OC)c(C(=O)c2ccc(C(=O)N3CCCCC3)cc2)c1
    -29.9% | 0.1 | -7.0% | -17.5 | -0.3 | -6.2
> NC[C@H](Cc1ccccc1)NCCc1cc(C(F)(F)F)cc(C(F)(F)F)c1
    / | -1.4 | -3.0% | -101.7 | 9.5 | 2.0
> Cc1cnc(C(=O)NC2CC(C)(C)Cc3c2cnn3-c2cccc(F)c2)cn1 (stereo not given)
    25.4% | 1.7 | -2.7% | -25.7 | -11.1 | -14.1
> COCCOC(=O)c1c(C)oc2ccc(NS(=O)(=O)c3ccc(F)cc3)cc12
    0.3% | -1.8 | -8.4% | -13.9 | -1.1 | /
> CC(C)CC(=O)Nc1ccccc1N1CCOCC1
    -4.7% | -3.7 | 12.2% | -17.6 | 17.2 | 25.3
> CCCn1ccnc1SCC(=O)Nc1c(C)n(C)n(-c2ccccc2)c1=O
    9.4% | -2.7 | 2.3% | -8.5 | 7.0 | -9.4
> N/C(Cc1ccc(Cl)cc1Cl)=N\OC(=O)c1ccc(Br)o1
    22.2% | ? | -5.2% | ? | 5.6 | -4.8
> COc1cc(C2c3[nH]c4ccccc4c3C[C@H]3C(=O)N(CCO)CC(=O)N23)cc(OC)c1OC (stereo not given in full)
    29.5%[15.4 µM] | -2.3 | 6.6% | -3.2 | 3.1 | 2.9
> COc1ccc(NC(=O)Nc2ccc3c(c2)C(=O)N([C@H](C)CO)C[C@H](C)[C@@H](CN(C)S(=O)(=O)c2ccc(F)cc2)O3)cc1
    / | -1.7 | 4.2% | -7.3 | -15.9 | ?
> Oc1oc(-c2ccco2)nc1C=Nc1cccc(Cl)c1
    3.9% | -1.9 | -13.4% | -12.2 | -1.0 | 2.2
> CCOc1cc(C=O)cc(Cl)c1OCC(N)=O
    -26.0% | -1.1 | -26.9% | -4.9 | -3.4 | /
> Cc1ccc(S(=O)(=O)N2CCN(C)CC2)c(C)c1N(C)S(=O)(=O)c1ccc(Cl)cc1
    ? | 1.7 | -7.2% | -14.7 | -6.7 | -16.5
> CC(=O)Oc1cccc(N2C(=O)C3CC=C(Cl)CC3C2=O)c1 (stereo not given)
    4.4% | -2.4 | 16.0% | -7.9 | -7.7 | 2.1
> CC1(C)CC(=O)C(C(C#Cc2ccccc2)C2=C(O)CC(C)(C)CC2=O)=C(O)C1
    -6.9% | -1.9 | 2.6% | -11.1 | 0.3 | -2.6
> COc1ccc2nc(NC(=O)C34CC5CC(CC(NC(C)=O)(C5)C3)C4)sc2c1
    -1.2% | -6.4 | -12.1% | -10.2 | -18.8 | 0.0
> N=c1occ(C(=O)c2cc(F)ccc2O)cc1C(=O)NC1CCCCC1
    -8.9% | 4.3 | -12.0% | 13.5 | -13.6 | 2.1
> OCCCNc1ncnc2c1ncn2[C@H]1CN(Cc2ccc(-c3ccccc3)cc2)C[C@@H](CO)O1
    / | 5.3 | / | -0.7 | -4.1 | -28.3
> O=C(NN1C(=O)C2C3C=CC(C3)C2C1=O)c1ccccc1 (stereo not given)
    31.8%[15.4 µM] | -1.9 | ? | -4.3 | 13.0 | 1.9
> O=C(NN1C(=O)C2C3c4ccccc4C(c4ccccc43)C2C1=O)c1ccc(Cl)cc1 (stereo not given)
    1.6% | -2.8 | -1.4% | -20.0 | 4.7 | -1.6
> CCN(Cc1ccccc1)C(=O)CN1C(=O)c2ccccc2S1(=O)=O
    -6.2% | 3.6 | 15.0% | -10.9 | 0.5 | 5.1

# Compound activity as filed in PubChem BioAssay.
